miR-21 FLuc – qHTS Assay for Modulators of miRNAs and/orActivators of miR-21; Potency, µM (doses to about 38.3 µM), without a hit: top-dose reporter change, positive = more light; AID 2288, 2010; 340,000 tested, under 10 active; HeLa miR-21 FLuc reporter, luciferase, 48 h; active = well fitted rising curve with a large enough effect; inconclusive = small, poorly fitted or top-dose-only effect; inactive = no such curve, though single readings can be large or run the other way;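 further: % of control where 0% means no effect; miR-21 action dims this reporter so a rising signal means less miR-21 action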
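Luminescence from a firefly luciferase reporter carrying a miR-21 binding site downstream, stably expressed under a CMV promoter in HeLa cells that make miR-21 endogenously, reports miRNA modulation after 48 h compound exposure up to approximately 40uM final.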
GLA inh pH 4.5 – qHTS Assay for Inhibitors of Human alpha-Galactosidase at pH 4.5 | Alpha-galactosidase A (Homo sapiens), P06280 | purified enzyme, 4-MU-alpha-Gal fluorescence, pH 4.5 | activity change, negative = inhibition, % at 105 µM | 230,000 tested, under 10 active | AID 1467, 2008; inconclusive = small, poorly fitted or top-dose-only inhibition, or a rising curve; inactive = flat fitted curve, though single readings scatter; no compound was filed as active;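 further: 0% = full activity with enzyme and -100% = basal without enzyme; dose as in the result columns while the protocol names 77 µM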
Target sequence (P06280 whole entry, looked up): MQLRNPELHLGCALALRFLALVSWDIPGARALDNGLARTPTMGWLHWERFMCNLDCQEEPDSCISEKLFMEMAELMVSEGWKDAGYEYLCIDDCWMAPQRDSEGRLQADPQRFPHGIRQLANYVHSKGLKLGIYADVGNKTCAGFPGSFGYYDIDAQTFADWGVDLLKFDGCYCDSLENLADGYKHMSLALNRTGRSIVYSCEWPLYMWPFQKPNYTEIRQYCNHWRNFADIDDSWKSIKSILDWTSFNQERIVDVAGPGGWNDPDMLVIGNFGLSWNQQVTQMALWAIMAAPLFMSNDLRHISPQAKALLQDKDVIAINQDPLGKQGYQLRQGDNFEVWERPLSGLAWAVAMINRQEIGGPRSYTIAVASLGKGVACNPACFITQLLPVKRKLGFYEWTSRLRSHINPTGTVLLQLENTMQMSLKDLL
Rango dissoc inh – qHTS Assay for Inhibitors of RanGTP induced Rango (Ran-regulated importin-beta cargo) - Importin beta complex dissociation; Snurportin-1 (Homo sapiens) + GTP-binding nuclear protein Ran (Homo sapiens) + Importin …; Biochemical FRET Rango-importin beta, RanGTP-induced dissociation; Potency, µM (doses to about 46.1 µM), without a hit: at the highest dose activity change, negative = inhibition; 340,000 compounds, 0.071% hits; active means falling FRET ratio curve, often poorly fitted, with flat reads before Ran was added; inconclusive means other falling curves, or compound fluorescence or quenching; inactive means flat or rising ratio curve;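 further: potency means the concentration at half of the fitted maximal effect; % of control where 0% means no effect; nearly all actives have a fitted effect of over 45% in size; -100% = wells without RanGTP and RCC1; the record marks most hits as doubtful in a second field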
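Quantitative HTS using a FRET biosensor: 0.1 uM Rango, 0.25 uM importin beta, 0.6 uM Ran, 2 mM GTP, 0.2 uM RCC1 final, PBS with DTT, Tween-20 and BSA. Post-read taken 45 min after Ran addition.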
Rango-impB inh – qHTS Assay for Inhibitors of Rango (Ran-regulated importin-beta cargo) - Importin beta complex formation. Importin subunit beta-1 (Homo sapiens), Q14974. Rango CFP/YFP FRET sensor + importin beta, 45 min. Potency, µM (doses to about 92.2 µM), for inactives: at the top dose inhibition of complex formation. 340,000 compounds, 0.031% hits; active = rising FRET ratio curve, often small or poorly fitted; inconclusive = mostly compound fluorescence or quenching in the first reads; inactive = flat curves in all reads;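 further: potency means the concentration at half of the fitted maximal effect; 0% = DMSO wells and 100% = buffer wells lacking importin beta; nearly all actives have a fitted effect of over 15% in size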
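FRET biosensor Rango (snurportin 1 IBB between N-terminal EYFP and C-terminal Cerulean), 50 nM in PBS/1 mM DTT/0.02% Tween-20/0.1% BSA, preincubated 5 min RT with compound; 0.125 microM importin beta added, 45 min RT, CFP/YFP FRET ratio read.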
* = called active by the depositor; ? = inconclusive; · = no result given; & = joins results of further samples.

Below each SMILES: miR-21 FLuc, GLA inh pH 4.5, Rango dissoc inh, Rango-impB inh
> CCCCN(C(=O)CSc1nnc(Nc2ccccc2)s1)c1c(N)n(CCC)c(=O)[nH]c1=O
  -7%, 10, 9%, -2.5%
> COc1ccc(Cc2nnc(NC(=O)c3c(-c4ccccc4)noc3C)s2)cc1OC
  -15%, 3, ·, ·
> COc1ccc(C(=O)n2cnnc2N)cc1
  -7%, -1, 12%, 2.4%
> O=C(NCc1ccco1)/C(=C/C=C\c1ccccc1)NC(=O)c1ccc(Br)o1
  ?, -4, 0%, -0.5%
> O=C(CSc1cn[nH]n1)Nc1ccc(Cl)cc1Cl
  -5%, ·, 1%, -2.1%
> COc1ccc(NC(=O)C2CC(=O)OC2(C)C)cc1 (stereo unspecified)
  -1%, -1, -12%, 3.4%
> CCN(CC(=O)Nc1ccc(OC)cc1)CC(=O)Nc1cccc(C#N)c1
  -7%, ·, -4%, -0.3%
> CCOC(=O)c1sc(=NC(=O)c2ccc(Cl)s2)n(C)c1C
  -61%, 5, -7%, 0.2%
> COc1ccc(NC(=O)CSc2nnc(NC(=O)C3CC3)s2)cc1OC
  -4%, ·, -4%, -1.9%
> COc1ccccc1N(CC(=O)NCCSC(C)(C)C)S(C)(=O)=O
  -1%, 1, -16%, ?
> COc1ccccc1C(=O)NCCCNc1ccc([N+](=O)[O-])cc1
  -7%, -14, -9%, 1.2%
> CCN(CC(=O)NCc1cccs1)C(=O)c1cccc(S(=O)(=O)Nc2cccc(C)c2)c1
  ·, ·, 52%, 0.4%
> COc1cc(/C=C/C(=O)OCC(=O)c2ccc3c(c2)NC(=O)CO3)ccc1OC(F)F
  ·, ·, -34%, ?
> CSc1cccc(NC(=O)CN(C)S(=O)(=O)c2ccccc2)c1
  -23%, -1, 0%, 0.4%
> CC(C)(C)NC(=O)CN(C(=O)C1(C)CC(=O)N=C2C=CC=CN21)C1CCCC1 (stereo unspecified)
  -1%, 3, -11%, -1.4%
> CC(C)Oc1ccccc1/C=N/n1nnnc1N
  ·, ·, 3%, 4.5%
> CC(C)C1O/C(=N/C(=O)Nc2ccc(Cl)c(Cl)c2)NC1=O (stereo unspecified)
  0%, 0, -12%, 3.2%
> O=C(COC(=O)C1CCCO1)Nc1cccc(C(F)(F)F)c1 (stereo unspecified)
  0%, -10, 4%, -3.8%
> CC(C)C[C@H](NC(=O)[C@@H]1Cc2ccccc2CN1)C(=O)Nc1ccc(C(C)C)cc1
  -15%, ·, 36%, 4.7%
> COc1cc(CN(C(=S)NCC(=O)NC2CC2)C2CCCC2)cc(OC)c1OC
  -6%, ?, 6%, 1.2%
> COC(=O)c1cc(C(=O)N2CCOCC2)cc([N+](=O)[O-])c1
  1%, -1, 22%, -1.6%
> Cc1ccc(C(=O)NCCNC(=O)COc2ccc(Cl)cc2)cn1
  -1%, ·, 0%, 1.2%
> COc1cccc(/C=N/NC(=S)Nc2cccc(C(=O)O)c2)c1
  -44%, -12, 16%, -3.8%
> CC(=O)NCCc1ccc(S(=O)(=O)N(C)C2CCS(=O)(=O)C2)cc1 (stereo unspecified)
  1%, -5, -2%, -0.3%
> COc1ccc2[nH]c3c(c2c1)CCN1C(=O)C(CC(=O)NCC24CC5CC(CC(C5)C2)C4)C[C@H](C(=O)N2CCOCC2)[C@@]31CCC1CCCC1 (stereo partly specified)
  ·, ·, 16%, -0.6%
> CN(Cc1n[nH]c(=S)n1C)S(=O)(=O)c1ccccc1
  -4%, 1, -1%, -2.0%
> Cc1oc(-c2ccccc2F)nc1CS(=O)CC(=O)NCc1ccc(Cl)cc1 (stereo unspecified)
  1%, ·, ?, 0.5%
> O=C(CN1C(=O)C2C3C=CC(C3)C2C1=O)NCc1ccccc1 (stereo unspecified)
  -2%, -8, -8%, 1.7%
> O=C(Sc1n[nH]c(=O)[nH]c1=O)c1ccccc1
  ·, ·, -1%, 0.3%
> CCOC(=O)N1CCN(S(=O)(=O)c2ccc3c4c(cccc24)C(=O)N3)CC1
  -16%, ·, ?, ?
> CCOC(=O)C(NC(C)=O)(OCc1ccc(F)cc1)C(F)(F)F (stereo unspecified)
  1%, 1, 0%, -0.5%
> O=C(NCCc1ccc(F)cc1)Nc1ccccc1Cl
  -20%, ·, -7%, 0.5%
> O=C(C1CCC1)N1CCc2cc(S(=O)(=O)NCCCN3CCCCC3)ccc21
  -2%, ·, -18%, 0.1%
> Cc1c(C#N)c(SCC(N)=O)nc2c1CCCC2
  -11%, 8, 13%, 6.1%
> C[C@H](O)[C@@H]1C(=O)N2CCc3ccc(N4CCOCC4)cc3[C@@H]2C[C@@H]1N(C)C(=O)C(C)(C)C
  ·, ·, -3%, 0.0%
> CCOC(=O)N1CCN(C(=O)C2CCN(S(=O)(=O)c3ccc(NC(C)=O)cc3)CC2)CC1
  -2%, ·, 10%, 3.7%
> COc1ccccc1NC(=O)NCCN1CCN(c2cccc(Cl)c2)CC1
  1%&2%, ·, -16%, -4.0%
> CCOc1ccc(NC(=O)CN(C)C(=O)CN2C(=O)c3ccc([N+](=O)[O-])cc3C2=O)cc1OCC
  ·, ·, 17%, -5.4%
> COc1ccc(-n2c(SCC(=O)/C(C#N)=C(\C)N)nc3ccccc3c2=O)cc1OC
  4%, -4, -11%, -3.5%
> CCOC(=O)C(=O)C1=C(N2CCOCC2)/C(=C\c2cccc([N+](=O)[O-])c2)CC1
  -7%, 4, 5%, -2.9%
> COc1ccc2occ(NC(C)=O)c2c1
  15%, -1, -10%, -0.7%
> Cc1ccc(S(=O)(=O)NCCC(=O)NC2CCCC2)cc1
  -3%, 1, -9%, 2.0%
> CCN1CCN(C(=O)CSCc2nc(-c3ccc(OC)c(OC)c3)oc2C)CC1
  -18%, -1, 15%, 1.6%
> CCN1CCN(c2nc(C)nc3c2sc(=S)n3C)CC1
  -16%, 7, -12%, -0.4%
> CCOc1ccc(N(CC(=O)NCc2ccc(F)cc2)S(=O)(=O)c2c(C)noc2C)cc1
  -4%, 2, 27%, 1.5%

Record cards (already shown). Screens in order: miR-21 FLuc, GLA inh pH 4.5, Rango dissoc inh, Rango-impB inh
COc1ccc2occ(NC(C)=O)c2c1 is listed with 15%, -1, -10%, -0.7%
CCOC(=O)N1CCN(C(=O)C2CCN(S(=O)(=O)c3ccc(NC(C)=O)cc3)CC2)CC1 is listed with -2%, ·, 10%, 3.7%
COc1ccc(-n2c(SCC(=O)/C(C#N)=C(\C)N)nc3ccccc3c2=O)cc1OC is listed with 4%, -4, -11%, -3.5%
C[C@H](O)[C@@H]1C(=O)N2CCc3ccc(N4CCOCC4)cc3[C@@H]2C[C@@H]1N(C)C(=O)C(C)(C)C is listed with ·, ·, -3%, 0.0%
CCN1CCN(C(=O)CSCc2nc(-c3ccc(OC)c(OC)c3)oc2C)CC1 is listed with -18%, -1, 15%, 1.6%

Quoted at random: two records from the list
Below each SMILES: miR-21 FLuc, GLA inh pH 4.5, Rango dissoc inh, Rango-impB inh
> COc1ccccc1NC(=O)NCCN1CCN(c2cccc(Cl)c2)CC1
  1%&2%, ·, -16%, -4.0%
> O=C(NCCc1ccc(F)cc1)Nc1ccccc1Cl
  -20%, ·, -7%, 0.5%

Additional compounds follow.
Below each SMILES: miR-21 FLuc, GLA inh pH 4.5, Rango dissoc inh, Rango-impB inh
> CC(CC(=O)O)CC(=O)Nc1ccc(S(N)(=O)=O)cc1 (stereo unspecified)
  0%, -1, -2%, 0.4%
> O=C(c1ccco1)N1N=C(c2cccs2)CC1c1ccco1 (stereo unspecified)
  4%, 2, 11%, -3.8%
> Cn1ncc2c(O/N=C(\N)c3ccc(C(F)(F)F)cc3)ncnc21
  ?, 2, 6%, -2.2%
> Cc1cc(C)c(NC(=O)CSc2ccc(-c3cccnc3)nn2)c(C)c1
  -5%, 6, -5%, -0.6%
> CCC(=O)c1cc(F)ccc1OCC(=O)Nc1ccc2c(c1)OCCO2
  ·, ·, -20%, 0.7%
> O=C(COc1ccccc1)NC(=S)Nc1cccc(NC(=O)c2ccccc2Cl)c1
  -2%, -3, -4%, -1.6%
> CCN(CC(=O)NCc1ccc(F)cc1)Cc1nc2ccccc2c(=O)[nH]1
  -8%, -10, -1%, -1.3%
> O=C1CNC(=O)/C1=C\c1ccc(O)cc1
  -7%, 1, 8%, 0.1%
> COc1ccc(CNC(=O)CCSCc2ccccc2Cl)c(OC)c1
  -4%, 0, 21%, -3.2%
> CCOCCn1c(CN2CCN(c3ccc(F)cc3)CC2)nc2c1c(=O)n(C)c(=O)n2C
  -2%, -1, 4%, -5.2%
> CCCc1cc(=O)n2[nH]c(-c3ccc(C)cc3)cc2n1
  -51%, 0, -7%, -4.7%
> O=C(c1ccccc1)N(Cc1ccc(F)cc1)C1CCS(=O)(=O)C1 (stereo unspecified)
  0%, 2, 29%, 2.5%
> O=C(Nc1cccc(S(=O)(=O)N2CCCC2)c1)c1cccc(OC(F)F)c1
  ·, ·, -7%, 8.6%
> CNS(=O)(=O)c1cc(C(=O)NCc2ccco2)ccc1Cl
  -6%, 4, 0%, ?
> CCc1ccc(S(=O)(=O)N2c3ccc(C)cc3C3CN(C)CCC32)cc1 (stereo unspecified)
  ·, ·, 6%, 0.7%
> CCc1ccccc1-n1c(SCC(=O)Nc2ccc3c(c2)OCCO3)nc2[nH]ncc2c1=O
  -49%, -4, -3%, -3.3%
> COCCNC(=O)C1CCN(S(=O)(=O)N2CCC3(CC2)OCCO3)CC1
  -5%, 3, 4%, 3.2%
> O=C(Cn1cnc2cc([N+](=O)[O-])ccc2c1=O)NCCc1ccc(Cl)cc1
  -4%, -1, 14%, -1.2%
> CCCC(=O)N(c1ccc(OCC)cc1)C1C=CS(=O)(=O)C1 (stereo unspecified)
  -5%, 1, 13%, -2.9%
> CCN(CC)CC(=O)N1CCCC(N2CCN(c3cccc(C(F)(F)F)c3)CC2)C1 (stereo unspecified)
  0%, ·, ?, ?
> CCOC(=O)c1cccnc1NC(=O)c1ccncc1
  -16%, -11, 24%, -5.0%
> COc1ccc(CC(=O)NC(C)c2ccc(S(N)(=O)=O)cc2)cc1S(=O)(=O)N1CCOCC1 (stereo unspecified)
  -7%, ·, -5%, -1.9%
> Cn1c(-[n+]2c(-c3ccccc3)cc(-c3ccccc3)cc2-c2ccccc2)nc2c([N+](=O)[O-])cccc21
  ?, -3, 5%, 3.4%
> COc1cccc(-c2nnc3n2N=C(c2cc(OC)ccc2OC)CS3)c1
  -6%, -5, 9%, 0.5%
> CCCn1c(N)c(C(=O)CSc2nnc(C3CC3)n2Cc2ccccc2)c(=O)n(C)c1=O
  ·, ·, 0%, -0.1%
> O=C(COc1ccccc1[N+](=O)[O-])Nc1cc(Cl)ccc1C(=O)O
  -2%, 1, 3%, 0.1%
> CCCCOc1ccc(C(=O)NCC(=O)NCCCn2nc(C)cc2C)cc1
  ·, ·, 1%, -4.3%
> O=S(=O)(Nc1ncccn1)c1ccc(F)cc1
  -2%, ·, -2%, 10%
> CC1CCN(S(=O)(=O)c2ccc(Cl)cc2)CC1
  0%, -6, -9%, 0.3%
> CCN(CC)S(=O)(=O)c1ccc(C(=O)Oc2cc(C)[nH]c(=O)c2[N+](=O)[O-])cc1
  1%, 2, -3%, 4.6%
> COc1ccc([C@H]2Cc3cc(O)cc(O)c3C(=O)O2)cc1O
  ·, ·, -14%, -3.6%
> CC(=O)N1CCC(O)(c2ccc3c(c2)OCO3)CC1
  -2%, ·, -2%, 1.0%
> COc1ccc(CCC(=O)NCCc2ccc(Cl)cc2)cc1
  -1%, ·, 9%, 2.2%
> OCCn1c(SCCOc2ccccc2F)nc2ccccc21
  -16%, -4, -6%, ?
> CCOc1ccc(-n2c(O)c(/C=N/NC(=O)C3COc4ccccc4O3)c3ccccc3c2=O)cc1 (stereo unspecified)
  -1%, -13, ?, ?
> COc1cccc(C(=O)Nc2cccc(NC(=O)c3ccccc3Cl)c2)c1
  -1%, ·, 24%, 1.3%

Compound activity (PubChem BioAssay)

These rows are one share of the data; rates above refer to the full screens.
